Bioassay records deposited in PubChem BioAssay by several laboratories.
Arbovirus anti: blocks arbovirus infection | arbovirus infection cell-based antiviral screen | inhibition, % at 10 µM | 200,000 tested, 0.37% active | AID 1251;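 active = inhibition from about 30%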;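 also: bluetongue infection of BSR cells; cell survival read as ATP light after 72 h; 0% = infected wells without compound and 100% = uninfected wells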
RecA splice inh: Mtb RecA intein splicing inhibition | P9WHJ3 | cell-free RecA intein splicing, fluorescence | inhibition, %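 (about 9 µM by stock and volumes)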 | 290,000 tested, 0.75% active; in the data active = inhibition above about 30%; inconclusive = no clear call, values can overlap the other calls;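 also: 0% = vehicle wells and 100% = reference inhibitor control wells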
Target sequence (P9WHJ3 whole entry, looked up, canonical isoform): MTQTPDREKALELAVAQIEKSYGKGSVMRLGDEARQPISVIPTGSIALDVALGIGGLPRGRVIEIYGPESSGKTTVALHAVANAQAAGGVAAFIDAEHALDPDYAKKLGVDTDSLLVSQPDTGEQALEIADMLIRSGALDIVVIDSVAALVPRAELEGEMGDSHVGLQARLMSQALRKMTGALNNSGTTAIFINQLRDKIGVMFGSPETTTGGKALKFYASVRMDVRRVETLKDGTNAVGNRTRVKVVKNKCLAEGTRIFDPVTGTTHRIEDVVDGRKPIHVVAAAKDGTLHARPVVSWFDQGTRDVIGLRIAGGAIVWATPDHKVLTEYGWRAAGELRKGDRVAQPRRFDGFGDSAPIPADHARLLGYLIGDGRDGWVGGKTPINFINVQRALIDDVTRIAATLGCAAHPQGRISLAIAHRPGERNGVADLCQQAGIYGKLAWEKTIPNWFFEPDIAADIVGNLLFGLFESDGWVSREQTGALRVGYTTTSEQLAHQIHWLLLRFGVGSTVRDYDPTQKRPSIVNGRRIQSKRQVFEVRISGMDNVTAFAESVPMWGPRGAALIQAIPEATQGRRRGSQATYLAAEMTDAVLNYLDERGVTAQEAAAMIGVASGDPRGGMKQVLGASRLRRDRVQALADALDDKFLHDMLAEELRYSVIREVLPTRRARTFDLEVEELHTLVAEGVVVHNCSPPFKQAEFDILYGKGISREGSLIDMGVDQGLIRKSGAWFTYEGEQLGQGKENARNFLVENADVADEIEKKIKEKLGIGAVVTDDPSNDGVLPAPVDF
Mtb bLac sens: beta-lactam sensitization of Mtb H37Rv; 330,000 tested, 0.27% active; inhibition, % at 25 µM; M. tuberculosis H37Rv growth with meropenem, percent inhibition; hits of this screen are not shown here;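 active = about 74% or more and at least 40 points above the plate without the antibiotic, then above 30% in a dose series; inconclusive = first-round hits that could not be retested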;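 also: growth measured after seven days incubation then overnight dye step; 0% = bacteria only wells and 100% = bacteria with antibiotic; twin plates without the antibiotic show which effects depend on it; some results filed as inactive read as strong as hits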
YopH PTP inh: YopH (Yersinia) phosphatase inhibition; fluorescence Ex485/Em525; 140,000 tested, 0.16% active; inhibition, %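 (about 10 µM by stock and volumes)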;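 active = inhibition of 50% or more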;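 also: controls were vehicle for no effect and minimum signal wells for full effect; inactives centre near -20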
Mtb H37Rv: M. tuberculosis H37Rv growth inhibitors, H37Rv strain (AID 1626). M. tuberculosis H37Rv growth inhibition; higher % means a stronger effect. one-dose inhibition, % at 10 µM; IC50 in µM for titrated hits. 220,000 tested, 0.95% active;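 active = confirmed in a dose series; inconclusive = inhibition above 80% but not taken into the dose series; inactive = below 80% or under 30% at every dose of the series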;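 also: bacteria incubated seven days before Alamar blue readout; 0% = bacteria only wells and 100% = bacteria with antibiotic wells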
Arbovirus anti repeat: recorded beside Arbovirus anti, whose call it bears; inhibition, %; measured here: 10K subset replicate screen; many hits read low in the repeat;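 first of two repeat runs on a subset; 0% = infected and 100% = uninfected wells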
An asterisk follows results filed as active; ? = inconclusive; · = not tested or not shown.

SMILES	Arbovirus anti	RecA splice inh	Mtb bLac sens	YopH PTP inh	Mtb H37Rv	others
COc1ccc(-c2ccc(CCC(=O)O)n2NC(=O)c2ccc(C(C)(C)C)cc2)cc1	4.6	3.6	-6.0	·	1.6%
Cc1ccc(S(=O)(=O)Nc2cc(C(F)(F)F)ccc2N2CCOCC2)cc1C	-2.0	2.3	-2.4	-27.2	0.7%
Cc1nc2ccccc2n1CC(=O)OCC(=O)NCCc1ccccc1	4.4	4.0	-3.7	-5.1	-6.6%
COc1cc(/C=N/NC(=O)Cc2ccccc2)cc([N+](=O)[O-])c1O	·	0.3	2.3	·	·
CC1Cc2ccccc2N1C(=O)COC(=O)CCc1nc2ccccc2c(=O)[nH]1 (stereo unspecified)	4.0	0.3	-7.2	·	0.1%
Cc1cc(=O)[nH]c(N2CCN(Cc3ccccc3)CC2)n1	14.8	0.0	-5.2	15.3	6.1%
COc1ccc(-c2oc3ccc(N4CCOCC4)cc3c2C#Cc2ccc(N)cc2)cc1	·	-1.7	95.5	·	12.2%
CCOC(=O)C1=C(CSc2nc(C)ccc2C#N)OC(N)=C(C#N)C1c1cccc(OC)c1OC (stereo unspecified)	10.1	4.8	1.0	-1.5	-1.4%
CCC(OC(=O)CC1Sc2ccccc2NC1=O)C(=O)NCC1CCCO1 (stereo unspecified)	1.8	0.0	11.6	-44.4	5.0%
CCN(CC)CCCOc1ccc(Cl)c(Cl)c1	-6.0	-0.2	4.8	-4.2	0.7%
COc1ccc(C2C3(C#N)C(N)=NC(OC)(OC)C23C#N)cc1 (stereo unspecified)	-14.7	-7.0	5.0	·	-1.6%
CC(C)CCN(C(=O)COc1ccc(C#N)cc1)c1c(N)n(Cc2ccccc2)c(=O)[nH]c1=O	-8.0	8.4	0.6	·	4.7%
O=C(NCc1ccccc1)NC1CCCCC1	0.3	-0.6	-5.5	-50.0	5.0%
CCCCNC(=O)Nc1ccccc1C(=O)Nc1ccc(OC)cc1	-0.1	-2.1	-4.1	-17.7	-1.7%
CCCc1nnc(NC(=O)CCC(=O)N2CCN(CCOC(c3ccccc3)c3ccccc3)CC2)s1	-23.6	0.9	98.1	-26.6	10.3%
O=C(CN1C(=O)c2cccc3cccc1c23)N1CCN(c2cccc(Cl)c2)CC1	-9.0	11.3	-0.7	-22.4	-6.7%
CCOc1ccccc1NC(=O)c1ccc2ccccc2c1	·	10.1	91.9	·	·
O=C(CN1CCOCC1)NCc1ccccc1Cl	·	2.6	3.6	·	·
O=C(C1CC1)N1N=C(c2ccc(F)cc2)CC1(O)C(F)(F)F (stereo unspecified)	·	0.8	-7.0	·	·
Cn1c(Cn2c(=O)sc3ccccc32)nnc1SCC(=O)NCC1CCCO1 (stereo unspecified)	-1.2	-0.3	-0.8	-39.1	-2.8%	Arbovirus anti repeat=-3.2
COC(=O)c1ccc(C(=O)OC)c(NC(=O)COC(=O)C2CCCCC2)c1	4.7	4.4	1.0	2.5	0.1%
COc1ccc(OC)c(C(=O)N2CCCC(Nc3ccc(F)cc3)C2)c1 (stereo unspecified)	·	0.6	?	·	·
O=C(O)c1ccc(-c2nc(-c3cccc(C(F)(F)F)c3)cs2)cc1	27.8	0.2	·	·	2.6%
O=C1N=C(N2CCOCC2)S/C1=C/c1cc2c(cc1[N+](=O)[O-])OCO2	·	1.2	50.3	·	-11.3%
Clc1ccc2oc(-c3cccnc3)nc2c1	-3.0	0.5	-1.3	-110.6	-7.0%

More results.
SMILES	Arbovirus anti	RecA splice inh	Mtb bLac sens	YopH PTP inh	Mtb H37Rv	others
O=C(CN1CCN(C(=O)c2ccco2)CC1)Nc1ccc(Cl)c(C(F)(F)F)c1	3.4	·	96.9	-34.7	9.8%
CCOP(=O)(c1ccc(N(C)C)cc1)C(O)c1ccc(Cl)cc1 (stereo unspecified)	5.1	-2.1	3.2	-28.0	-22.1%
CCCc1cc(=O)[nH]c(SCC(=O)NN(c2ccccc2)c2ccccc2)n1	13.3	1.7	1.2	·	7.9%
COc1ccc2occ(C(=O)c3ccc(N)cc3)c2c1	·	-2.0	2.3	·	·
Cc1ccc(C(=O)NCC(=O)NCc2cc(=O)n(C)c(=O)n2C)cc1	·	-1.1	-6.5	·	·
COC(=O)c1cccc(Nc2nc(-c3ccncc3)nc3ccccc23)c1	·	3.7	3.5	·	·
COc1ccc(NC(=O)COC(=O)Cc2c(F)cccc2Cl)cc1OC	0.4	0.8	7.5	·	1.0%
CC(=O)Nc1ccc(S(=O)(=O)Nc2ccc(S(=O)(=O)N3CCCC3)cc2)cc1	11.1	1.0	1.0	-19.2	-4.3%
COc1ccc(NC(=O)N(Cc2cc3cc(OC)ccc3[nH]c2=O)CC2CCCO2)cc1 (stereo unspecified)	-16.5	-8.1	-13.6	-24.0	-5.4%
Cc1ccc(Cl)cc1N(CC(=O)N1CCCCCC1)S(C)(=O)=O	11.2	-0.6	-3.8	-43.8	1.5%	Arbovirus anti repeat=-1.4
O=C(Nc1ccc(Cl)cc1)N1CCN(c2ccc3nnc(-c4ccc(F)cc4)n3n2)CC1	4.9	-0.3	98.8	-35.0	?
COc1ccc(NC(=O)c2sc(N)nc2-c2ccccc2)cc1	13.0	-2.8	-3.9	·	-2.7%
NCCCCCc1nnc(SC/C=C/c2ccccc2)o1	6.8	1.9	2.9	-30.0	-1.4%
O=[N+]([O-])c1ccc(SCc2c(F)cccc2Cl)nc1	·	·	-3.2	·	1.4%
O=C(COc1cccc(F)c1)Oc1ccc(C(=O)c2ccccc2)cc1	-5.7	3.0	14.1	-4.6	6.1%
COc1cc(C2c3c(-c4cc(C)cc(C)c4O)n[nH]c3C(=O)N2CCCO)cc(OC)c1OC (stereo unspecified)	1.7	-4.1	-6.8	-54.9	-8.7%
CCOc1ccc(C2C(C#N)=C(N)Oc3cc(O)ccc32)cc1OCC (stereo unspecified)	·	-8.4	1.2	·	·
CC(=O)Nc1cccc(NC(=O)CSc2nccn2Cc2ccco2)c1	·	1.3	1.6	·	·
Cc1ccc(Cn2ncc(Cl)c(Cl)c2=O)cc1	-31.4	38.1*	55.6	-9.2	10.7%
COc1ccc(Cc2nc3ccc(C(=O)NCCc4cccc(C)n4)cc3o2)cc1	·	-2.3	0.4	·	·
CN1[C@@H]2CC[C@H]1CC(OC(=O)c1c[nH]c3ccccc13)C2 (stereo partly specified)	·	-1.8	-3.3	·	-0.1%
CCOc1ccc(Cc2nnc(SCC(N)=O)n2C)cc1	-4.4	-2.3	2.4	-17.3	4.6%
O=C(O)c1csc(-c2cccc(Cl)c2)n1	·	-2.7	-6.5	·	-3.8%
COc1ccccc1NC(=O)CSc1nnc(Cc2cc(=O)[nH]c(=O)[nH]2)n1-c1ccccc1	-2.2	-2.6	2.4	-29.7	-8.8%

Gathered by group, the compounds so far containing fluorine.
SMILES	Arbovirus anti	RecA splice inh	Mtb bLac sens	YopH PTP inh	Mtb H37Rv	others
Cc1ccc(S(=O)(=O)Nc2cc(C(F)(F)F)ccc2N2CCOCC2)cc1C	-2.0	2.3	-2.4	-27.2	0.7%
O=C(C1CC1)N1N=C(c2ccc(F)cc2)CC1(O)C(F)(F)F (stereo unspecified)	·	0.8	-7.0	·	·
COc1ccc(OC)c(C(=O)N2CCCC(Nc3ccc(F)cc3)C2)c1 (stereo unspecified)	·	0.6	?	·	·
O=C(O)c1ccc(-c2nc(-c3cccc(C(F)(F)F)c3)cs2)cc1	27.8	0.2	·	·	2.6%
O=C(CN1CCN(C(=O)c2ccco2)CC1)Nc1ccc(Cl)c(C(F)(F)F)c1	3.4	·	96.9	-34.7	9.8%
COc1ccc(NC(=O)COC(=O)Cc2c(F)cccc2Cl)cc1OC	0.4	0.8	7.5	·	1.0%
O=C(Nc1ccc(Cl)cc1)N1CCN(c2ccc3nnc(-c4ccc(F)cc4)n3n2)CC1	4.9	-0.3	98.8	-35.0	?
O=[N+]([O-])c1ccc(SCc2c(F)cccc2Cl)nc1	·	·	-3.2	·	1.4%
O=C(COc1cccc(F)c1)Oc1ccc(C(=O)c2ccccc2)cc1	-5.7	3.0	14.1	-4.6	6.1%

The list is partial, so the mix of outcomes need not match the whole.
